# Source: PubChem
# Sa helicase inh: S. aureus DNA helicase inhibition | purified S. aureus helicase, fluorescence unwinding assay; about half of the hits fall short of the stated cut | inhibition, %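 (tested at about 80 µM)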 | actives 0.05% (n = 120,000) | AID 485395;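 active = both duplicates at 50% or more, or one of them with a favoured structure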;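 also: 0% = mean of negative control wells and 100% = mean of positive control wells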
# MgrA-DNA mod: alters Staphylococcus aureus MgrA binding to DNA | fluorescence polarization | AID 602314 | inhibition, %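 (about 10 µg/mL by stock and volumes)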 | actives 0.13% (n = 84,000);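 active = above 50% in either of two replicates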;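 also: 0% = protein plus DNA without compound and 100% = DNA alone without protein; higher means less MgrA bound to DNA so lower polarization; one replicate is shown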
# Active calls of the source: *; nt = not tested or not shown. Not all compounds are listed; rates above refer to the full screens.
Sa helicase inh | MgrA-DNA mod | smiles
2 | -1.6 | c1csc(-c2nnc(N3CCCCCC3)c3ccccc23)c1
9 | nt | CC(C)(C)OC(=O)COc1ccc2oc(=O)sc2c1
-4 | nt | CC(C)CNc1ncnc2c1oc1ccccc12
-18 | nt | COc1ccccc1Cn1c(=O)oc2ccc(C)cc21
1 | 0.7 | COc1ccc(CCNC(=O)c2ccc(Cl)cc2NC(=O)C2=C(C)OCCS2)cc1OC
nt | 0.9 | Clc1ccccc1-c1csc(NCC2CCCO2)n1 (stereo not drawn)
5 | -3.0 | N=c1sc2ccccc2n1CC(O)c1ccc(Cl)c(Cl)c1 (stereo not drawn)
8 | nt | O=C(C1CCN(S(=O)(=O)c2cc(C(F)(F)F)ccc2Cl)CC1)N1CCN(C(=O)C2CCCO2)CC1 (stereo not drawn)
nt | 2.6 | NNC(=O)c1n[nH]c2c1CCC2
-25 | nt | CCOC(=O)/C=C(\C)Nc1nc2ccccc2s1
-10 | nt | Cc1csc(C(C#N)C(=O)CSc2nc3ccccc3o2)n1 (stereo not drawn)
11 | -2.9 | Cc1ccccc1OC(=O)Cn1c(=O)sc2ccccc21
22 | nt | Cc1oc2ncn3nc(C(C)Oc4cccc5ccccc45)nc3c2c1C (stereo not drawn)
12 | -1.4 | CC(=O)N1C(=O)NC(=O)C1(C)C
-7 | 0.2 | O=C(NCCC1=CCCCC1)C1CCC(CNS(=O)(=O)c2ccccc2)CC1 (stereo not drawn)
-1 | -0.3 | Cc1ccc(S(=O)(=O)Nc2ccccc2N)cc1
5 | 1.9 | COc1ccc2cc3c(N)nn(C(=O)c4ccncc4)c3nc2c1
15 | nt | COc1cccc(Cn2c(=O)n3nc(CCn4nc(C)cc4C)nc3c3ccccc32)c1
9 | nt | CC(C)NC(=O)Cn1ncc2c(=O)oc3ccccc3c21
2 | nt | COc1ccccc1NC(=O)CCC(=O)O
-11 | nt | C=CCn1c(O)c2ccc(C(=O)N=C3N=c4ccccc4=N3)cc2c1O
20 | nt | CC(Sc1nncn1C)C(=O)Nc1ccc(C#N)cc1 (stereo not drawn)
-25 | nt | CCOC(=O)c1sc(=NC(=O)c2ccc(S(=O)(=O)N3CCCCC3)cc2)n(C)c1C
nt | -1.7 | O/N=C/c1cc(Cl)cs1

# Structural class: the entries above containing a halogen.
Sa helicase inh | MgrA-DNA mod | smiles
1 | 0.7 | COc1ccc(CCNC(=O)c2ccc(Cl)cc2NC(=O)C2=C(C)OCCS2)cc1OC
nt | 0.9 | Clc1ccccc1-c1csc(NCC2CCCO2)n1 (stereo not drawn)
5 | -3.0 | N=c1sc2ccccc2n1CC(O)c1ccc(Cl)c(Cl)c1 (stereo not drawn)
8 | nt | O=C(C1CCN(S(=O)(=O)c2cc(C(F)(F)F)ccc2Cl)CC1)N1CCN(C(=O)C2CCCO2)CC1 (stereo not drawn)
nt | -1.7 | O/N=C/c1cc(Cl)cs1

# Later entries
Sa helicase inh | MgrA-DNA mod | smiles
nt | -1.7 | O=C(c1ccccc1)c1cc(Cl)ccc1NC(=S)Nc1cccc(Cl)c1
nt | 0.3 | COc1ccnc(Oc2cccc(C(F)(F)F)c2)c1C#N
-15 | -2.0 | CC1CC1C(=O)OCC(=O)Nc1ccccc1Oc1ccccc1 (stereo not drawn)
14 | nt | CCOC(=O)c1c(C)oc2cc(Br)c(O)cc12
5 | 3.7 | O=c1c(/C=N/N2CCOCC2)c(-c2ccccc2)[nH]n1-c1nc2ccccc2s1
4 | -2.0 | COc1ccc(C2CC(c3cc4ccccc4oc3=O)=Nc3ccccc3N2)cc1 (stereo not drawn)
9 | nt | CCCCn1nnnc1CSc1nnc(-c2cc(OC)c(OC)c(OC)c2)n1-c1ccccc1F
-6 | nt | N#C/C=C/N1CCC(Cc2ccccc2)CC1
-14 | 1.4 | Cc1cccc(C(=O)OCc2nc3ccccc3c(=O)[nH]2)c1C
10 | nt | O=C(CSc1nnc2ccccn12)NCc1cccs1
-5 | 0.2 | Nc1n[nH]c(CCc2ccccc2)n1
21 | 1.8 | CCN(C#N)c1nc(C)cc(OC)n1
16 | nt | CC1CSC(N(C(=O)CN2CSCC2=O)c2ccc(Cl)cc2)=N1 (stereo not drawn)
9 | nt | N#Cc1c(=N)nc2oc3ccc(Cl)cc3c3c(C#N)c(N)[nH]c1c23
1 | -0.1 | CCOC(=O)c1nc(N)c(=O)n(-c2ccc(Cl)cc2)n1
2 | 0.1 | CCN(Cc1ccncc1)S(=O)(=O)c1ccc(Cl)cc1

# Quoted from the listing:
# Sa helicase inh, O=C(CSc1nnc2ccccn12)NCc1cccs1 reads 10
# Sa helicase inh, Cc1cccc(C(=O)OCc2nc3ccccc3c(=O)[nH]2)c1C reads -14
# MgrA-DNA mod, CCN(C#N)c1nc(C)cc(OC)n1 reads 1.8
# Sa helicase inh, CCOC(=O)c1nc(N)c(=O)n(-c2ccc(Cl)cc2)n1 reads 1
# MgrA-DNA mod, Nc1n[nH]c(CCc2ccccc2)n1 reads 0.2

# Further entries:
Sa helicase inh | MgrA-DNA mod | smiles
-2 | 0.6 | O=C1N/C(=N\O)S/C1=C/c1cccnc1
-1 | 1.9 | COc1ccc(CCn2c(=S)[nH]c3c(sc4ccccc43)c2=O)cc1OC
nt | 3.5 | CC(C)(C)c1ccc(-c2nnc(-c3cccc([N+](=O)[O-])c3)o2)cc1
-4 | nt | O=C1N(c2ccc3c(c2)OCO3)C(c2ccc(F)cc2)C1(F)F (stereo not drawn)
0 | -0.6 | N#CC(C#N)=Cc1cn(CC(=O)Nc2ccccc2)c2ccccc12
5 | nt | CCOC(=O)CSc1nnc(-c2ccc(N(C)C)cc2)o1
nt | -2.1 | O=C(c1cccs1)c1cccs1
-2 | nt | CN(C(=O)COC(=O)c1cccs1)C1CCS(=O)(=O)C1 (stereo not drawn)
nt | -2.8 | Cn1c(N)c(C(C[N+](=O)[O-])c2ccc(Cl)cc2Cl)c(=O)n(C)c1=O (stereo not drawn)
6 | -1.9 | O=C(NCC1CCCO1)c1c[nH]c2ccccc2c1=O (stereo not drawn)
20 | nt | CCCCn1c(CCCNC(=O)c2ccco2)nc2ccccc21
-18 | -1.6 | CCSc1nc2ccccc2n1CC(=O)Nc1cc(Cl)ccc1OC
7 | -0.2 | CCn1ccc(C(=O)Nc2ccccc2Cl)n1
0 | 6.0 | COc1ccc(CNc2cc(C)cc(C)c2)cc1
7 | -1.1 | CN1C(=O)C(=Cc2cccn2-c2ccccc2)C(=O)N(C)C1=O
5 | nt | CCCn1c(C(F)(F)F)nc2ccccc21

# Complete entries, quoted from the list.
# Profile of Cc1ccc(S(=O)(=O)Nc2ccccc2N)cc1 : Sa helicase inh = -1; MgrA-DNA mod = -0.3
# Profile of COc1ccc(CCn2c(=S)[nH]c3c(sc4ccccc43)c2=O)cc1OC : Sa helicase inh = -1; MgrA-DNA mod = 1.9

# Continued.
Sa helicase inh | MgrA-DNA mod | smiles
-4 | 18 | COCCNC(=S)N1CCCN(c2nc3cc(C)ccc3cc2C#N)CC1
-18 | nt | CCOC(=O)c1cc(S(=O)(=O)NCCc2ccccc2)cn1C
7 | -1.4 | Cc1cc(C)n2nc(C(=O)N/N=C/c3ccncc3)nc2n1
-1 | nt | CCOC(=O)/C(N=O)=C(/O)c1c[nH]c2ccccc12
nt | -0.1 | FC(F)(F)c1cccc(Sc2cnc3ccccc3n2)c1
-3 | 0.0 | O=C(CC(=O)c1ccccc1)Nc1cc(C(F)(F)F)ccc1Cl
4 | -0.9 | Cn1c(=O)[nH]c(=O)c2c1nc(NNC=O)n2Cc1ccc(Cl)cc1
12 | 0.7 | CC(=O)Oc1cc2c(C(=O)N3CCCC3)c(C)oc2c2ccccc12
5 | 0.3 | O=C(O)C(Cc1ccsc1)c1ccccc1 (stereo not drawn)
nt | 0.0 | NC(=O)c1cnn(C2CCS(=O)(=O)C2)c1 (stereo not drawn)
3 | 2.0 | CN1CCN(C(=O)c2ccccc2NC(=O)c2ccc(Cl)cc2)CC1
8 | nt | COC(=O)CC1SC(=O)N(c2ccc(C)cc2)C1=O (stereo not drawn)
0 | 2.0 | COC(=O)c1ccc(NC(=O)c2ccn[nH]2)cc1
15 | nt | Cc1nn2c(nc1=O)SCC2(O)c1ccccc1 (stereo not drawn)
39 | nt | O=C(O)C12CC3CC(C1)CC(C(=O)O)(C3)C2
14 | nt | CN(C)c1cccc(C(=O)N/N=C2\CCSc3ccc(F)cc32)c1
-27 | nt | CCc1c(C)c(C#N)c2nc3ccccc3n2c1NCc1ccco1
7 | 1.4 | Nc1n[nH]c(C2CCCCC2)n1
-10 | nt | O=C1/C(=C/c2ccccc2OC(F)F)CS(=O)(=O)c2ccc(F)cc21
-15 | nt | OC(COc1ccc(Br)cc1)Cn1nnc2ccccc21 (stereo not drawn)
8 | 1.5 | CCOc1ccc(S(=O)(=O)NCc2ccccc2)cc1-c1nc2c(C(C)(C)C)nn(C)c2c(=O)[nH]1
13 | 71* | CCOC(=O)[C@@H]1Nc2ccc(C(=O)O)cc2[C@@H]2C=CC[C@H]12
-14 | nt | Cc1cc2cc(CNc3ccc(N4CCCC(O)C4)cc3)c(=O)[nH]c2cc1C (stereo not drawn)
0 | nt | COc1ccc(-c2noc(-c3cc4c(COC(C)=O)cnc(C)c4oc3=O)n2)cc1
2 | nt | COC(=O)Cc1[nH]nc2c1C(C1C=CCCC1)C(C#N)=C(N)O2 (stereo not drawn)
12 | nt | COCC(=O)Oc1c(Sc2c(F)c(F)c(F)c(F)c2F)c(C)nn1C(C)(C)C
3 | nt | COc1ccc(-c2csc(N)n2)cc1
nt | 1.6 | OCC1c2ccccc2Oc2ccccc21
-67 | 2.6 | CCOc1cc(/C=C2\Sc3ccccc3C2=O)cc(I)c1O
4 | 0.7 | CC(C)(C)n1nnnc1C(c1ccccn1)N1CCN(c2cccc(C(F)(F)F)c2)CC1 (stereo not drawn)
7 | nt | O=C(O)Cc1csc(N2CCCC2=O)n1
-7 | nt | COc1ccc(C2=C(N3CCC(C(N)=O)(N4CCCCC4)CC3)c3ccccc3C2=O)cc1
8 | nt | O=S(=O)(Cc1noc(-c2cc(Cl)cc(Cl)c2)n1)c1ccc(Cl)cc1
-31 | nt | CCCC(Nc1ncnc2ccccc12)C(=O)O (stereo not drawn)
1 | -1.5 | Cc1ccc(S(=O)(=O)N2CCCC2C(=O)NC2CCCCC2)cc1 (stereo not drawn)
-14 | nt | CC(C)C(NC(=O)C12CC3(C)CC(C)(CC(C)(C3)C1)C2)C(=O)O (stereo not drawn)
19 | nt | Cc1cc(NC(=O)CSc2c[nH]c3ccccc23)no1
28 | nt | CCc1nc(NC2CCCCC2)c(C#N)c2c1CCCC2
7 | nt | COc1cccc2c(=O)n(CC(=O)N3CCCC3)ccc12
13 | nt | O=c1cc(-c2ccccc2)c2c(O)cc(O)cc2o1
6 | nt | O=C(CSc1nc(C(F)(F)F)cc(=O)[nH]1)N1CCN(c2ccccc2)CC1
-8 | nt | O=C(COc1ccc(F)cc1)N/N=C1\CCS(=O)(=O)c2ccc(F)cc21
-12 | nt | CCOC(=O)c1c(NC(C)=O)c2c3c(sc2n1Cc1nc(-c2ccccc2OC)oc1C)CCCC3
-42 | nt | Cc1ccc(CN2C(=O)CCC2(C)C(=O)NCCC(C)C)cc1 (stereo not drawn)
-14 | nt | CCCNC(=O)Cn1c(-c2cccs2)cc2ccccc21
-6 | nt | NC(=S)c1cccc(Oc2ccccc2)c1
1 | -2.1 | N#CC1=C(N)OC2=C(CCc3ccccc32)C1c1ccccc1Cl (stereo not drawn)
-10 | nt | COc1cc(C)c(Cl)c(C)c1S(=O)(=O)N1CCN(Cc2ccccc2)CC1
17 | -0.7 | C=CCN(c1ccccc1)C(C(=O)Nc1ccc2c(c1)OCCO2)c1ccccc1 (stereo not drawn)
6 | nt | CN(C)CCNC(=O)c1c[nH]c2ccccc12
-2 | 1.9 | COc1cccc(C(=O)OCC(=O)c2ccc(-c3ccccc3)cc2)c1
-15 | nt | CN1C(=O)CS/C1=C\C#N
19 | nt | Cc1c(S(=O)(=O)NC2CCCCNC2=O)sc2ccc(Cl)cc12 (stereo not drawn)
-9 | nt | CCOC(=O)c1cnc(SCC(=O)OCC(=O)N2CCc3ccccc32)nc1N
-4 | 0.5 | CCN(CC)CCN1COc2c(cc(Cl)c3cccnc23)C1
11 | nt | Oc1c(CN2CCCCCC2)cc(Cl)c2cccnc12

# Other compounds
Sa helicase inh | MgrA-DNA mod | smiles
12 | -0.8 | CCC1(C)Cc2c(C#N)c(N)n(-c3ccccc3)c(=O)c2CO1 (stereo not drawn)
nt | 0.1 | CC1=C(C(=O)OCCc2ccccc2)C(c2cccc(C(F)(F)F)c2)NC(=O)N1C (stereo not drawn)
5 | nt | C=CCN(CC(N)=O)S(=O)(=O)c1ccccc1C(F)(F)F
2 | -0.3 | CNC(=O)c1ccccc1NCC(=O)O
-9 | nt | CCC1CCCCN1C(=S)NC(=O)c1ccccc1 (stereo not drawn)
-5 | nt | NC(=O)CNC(=O)c1ccc(Oc2ccccc2)cc1
10 | -0.5 | O=C(CC1(O)C(=O)N(CCc2ccccc2)c2ccccc21)c1cccnc1 (stereo not drawn)
6 | -3.7 | COc1ccc(-c2oc3ncn(CC(C)C)c(=N)c3c2-c2ccc(OC)cc2)cc1
-12 | nt | COc1ccc(-c2noc(N3CCCC(C(=O)NC4CCCc5ccccc54)C3)n2)cc1 (stereo not drawn)
3 | nt | C/C(Cn1nnc2ccccc21)=N\NC(=O)c1ccc(Br)cc1
7 | nt | CCn1nnc2cc(C(=O)Nc3ccccc3C(=O)NC3CCCC3)ccc21
3 | -0.4 | Cc1ccc(C)c(CNc2ccc3[nH]ncc3c2)c1
nt | 1.4 | CCc1nc(CN2CCN(c3ccc(C(F)(F)F)cn3)CC2)c(C)[nH]1
1 | nt | CCOC(=O)c1sc2nc(-c3ccccc3)cn2c1C
18 | nt | CSc1nc(/N=C/N(C)C)n(-c2c(Cl)cc(Cl)cc2Cl)n1
-7 | nt | Cc1ccccc1CN1C(=O)C2CC=CCC2C1=O (stereo not drawn)
18 | 4.7 | COc1ccc(C2CC(C3C(=O)c4ccccc4C3=O)=NN2)cc1 (stereo not drawn)
